Screens deposited in PubChem by Southern Research Institute.
Mtb H37Rv: Mycobacterium tuberculosis H37Rv growth inhibition, cell based, confirmatory dose response (AID 1949). M. tuberculosis H37Rv growth inhibition. most inactive calls were filed without a number and no value below 0 was filed. inhibition, % at 10 µg/mL, or IC50 in µg/mL where a hit was titrated. 1.6% of 100,000 active;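 active = confirmed in a dose series; inconclusive = about 50% or more but not retested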;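 note: bacteria grown 7 days with compound before Alamar blue readout; 0% = untreated bacteria and 100% = reference antibiotic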
* marks the source's active call; other numbers are inactive results; i = inactive; ? = inconclusive. An excerpt. The share of hits here may be higher or lower than overall.

SMILES	Mtb H37Rv
COc1ccc(/C=N/N=C2/NC(=O)C(Cc3ccc(Cl)cc3)S2)cc1 (stereo not drawn)	i
O=C(c1ccc(Cl)cc1)N(Cc1ccccc1F)N1C(=O)CCCC1=O	i
CCNS(=O)(=O)c1ccc2c(c1)n(C)c(=O)n2C	i
Cc1ccc(OCC(=O)Nc2ccc(N3CCN(C(=O)c4ccc(C)cc4)CC3)cc2)cc1	i
COc1cc(C(=O)Nc2cccc(NC(=O)c3cc(F)c(F)cc3Cl)c2)cc(OC)c1OC	i
CCc1c(C)sc(NC(=S)Nc2cc3oc4ccccc4c3cc2OC)c1C(=O)OC	i
O=CNC(c1ccccc1)c1ccccc1Br (stereo not drawn)	i
O=C(CSc1nc(O)cc(=O)[nH]1)Nc1ccccc1	i
CC(C)Cn1c(COc2ccc(Cl)cc2)nc2ccccc21	7.8%
CCc1cccc(C)c1NC(=O)CSC(C)c1nc2ccccc2c(=O)[nH]1 (stereo not drawn)	i
O=C(CS(=O)c1ccccc1[N+](=O)[O-])Oc1ccc(Cl)cc1Cl (stereo not drawn)	i
O=C1CC(c2cccc3ccccc23)Sc2nc(C34CC5CC(CC(C5)C3)C4)nn21 (stereo not drawn)	i
O=C(c1cn(CC(=O)N2CCc3ccccc32)c2ccccc12)C1CC1	0.6%
Cc1ccc(S(=O)(=O)N(CC(=O)NC2CC2)Cc2ccc(Cl)cc2Cl)cc1	i
CC(=O)Nc1ccc(NS(=O)(=O)c2cc(N(C)S(=O)(=O)c3ccc(C)cc3)c(C)cc2C)cc1	i
CN(Cc1ccccc1)S(=O)(=O)c1ccc(OCC(=O)NCc2ccccn2)cc1	1.1%
COc1cc(-c2nnc(COc3ccc(Cl)cc3Cl)o2)cc(OC)c1OC	i
Cc1ccc(NC(=O)Cn2c(=O)oc3ccccc32)cc1	i
Cc1noc(C)c1C(=O)N1CCN(Cc2ccc3c(c2)OCO3)CC1	i
C=CCSc1nc2ccccc2n1CCO	1.8%
N#Cc1c(C(F)(F)F)cc(-c2ccc(Cl)cc2)nc1SCC(=O)Nc1ncccn1	23.3%
Cc1ccc(S(=O)(=O)NC2(C(F)(F)F)C(=O)Nc3c2c(=O)[nH]c(=O)n3Cc2ccco2)cc1 (stereo not drawn)	i
O=C(Nc1nc(-c2ccc(Cl)cc2Cl)cs1)c1ccc(Br)o1	i
CCN1CCN(c2ccc(NC(=O)c3ccc([N+](=O)[O-])c(C)c3)cc2)CC1	i
CCCCNS(=O)(=O)c1ccc(NC(=O)c2ccccc2I)cc1	i
CC(C)(C)Cc1nnc(NC(=O)CC(c2ccccc2)c2ccccc2)s1	3.2%
O=S1(=O)CC2C(C1)N(c1ccc(Br)cc1)C(=S)N2c1ccccc1 (stereo not drawn)	i
COc1ccc(-c2cc(C(F)(F)F)nc(SCC(=O)NCc3ccc(F)cc3)n2)cc1OC	i
COc1ccc(NC(=O)c2ccco2)c(C)c1	i
Cc1ccc2cccc(SCC(=O)Nc3ccc(Br)cc3)c2n1	7.5%
O=C1NC(=O)C(CCc2ccccn2)(CCc2ccccn2)C(=O)N1c1ccc(F)cc1	1.1%
CC(Nc1nc(-c2cccnc2)nc2ccccc12)c1ccccc1 (stereo not drawn)	18.1%
Cc1ccc2nc(NC(=O)CN3CCCC3)sc2c1	17.1%
Cc1ccc(C)c(OC(=O)CN2C(=O)c3ccccc3C2=O)c1	i
Cc1cc(C)n2nc(C(=O)NCc3ccco3)nc2n1	i
O=C(CC(c1ccccc1)c1ccccc1)NNC(=S)NCc1ccco1	i

Looked up above.
Cc1ccc2nc(NC(=O)CN3CCCC3)sc2c1 @ Mtb H37Rv = 17.1%
CC(Nc1nc(-c2cccnc2)nc2ccccc12)c1ccccc1 (stereo not drawn) @ Mtb H37Rv = 18.1%

Carrying on:
SMILES	Mtb H37Rv
COc1ccc(-c2cc(=O)oc3cc(OCC(=O)c4ccc(F)cc4)ccc23)cc1	i
COc1ccc([N+](=O)[O-])cc1NC(=O)CN(c1ccc(C)cc1)S(=O)(=O)c1ccc(SC)cc1	i
N#CC1=C(N)Oc2n[nH]c(-c3ccccc3)c2C1c1ccc(Cl)s1 (stereo not drawn)	1.9%
CCOc1ccc(NC(=S)NCc2ccco2)cc1	i
CC(=O)c1cnc2nc(C(F)(F)F)nn2c1C	i
CCCN1C(=O)C(NC(C)=O)c2cc(F)ccc21 (stereo not drawn)	i
CC(=O)c1ccc(Cc2ccc(C(C)=O)cc2)cc1	3.3%
Cc1c(NC(=O)CN(c2ccccc2)S(C)(=O)=O)c(=O)n(-c2ccccc2)n1C	i
O=C(c1ccncc1)N(Cc1ccccc1)c1ccccc1	i
NC(=O)C1CCN(C(=O)CN2CCCc3ccccc32)CC1	i
Cc1cccc(N/C(N)=N/c2nc(C)c(Cc3ccccc3)c(=O)[nH]2)c1	i
COc1ccc(C)cc1S(=O)(=O)N(CC(=O)NCc1ccco1)c1ccccc1	i
COC(=O)c1ccc(NC(=O)c2ccc(C)cc2Cl)cc1	3.2%
Cc1cc([N+](=O)[O-])ccc1NC(=O)c1ccc(Cl)cc1	i
Cc1ccc(C(=O)NC(C(=O)O)C(C)C)cc1 (stereo not drawn)	i
CCc1cc(C(=O)OC)c(NC(=S)NCc2cnn(CC)c2)s1	26.7%
Nc1ccc(N2CCN(Cc3ccccc3F)CC2)cc1	0.1%
COCCNC(=O)c1ccccc1NC(=O)CSCc1ccccc1Br	i
COc1ccc(C(=O)CN(C(=O)c2ccc(Cl)cc2)N2C(=O)C3CCCCC3C2=O)cc1 (stereo not drawn)	i
COc1ccc(CCNC(=O)COc2ccc(C(C)(C)C)cc2)cc1	0.9%
NCCNCCOCCOc1cccc2ccccc12	i
CCOC(=O)c1c(NC(=O)COC)sc(C(=O)OC(C)C)c1C	1.2%
CCC(C)NC(=O)c1ccccc1NC(=O)CSCc1c(Cl)cccc1Cl (stereo not drawn)	i
CCOC(=O)C1=C(c2ccccc2)Nc2ncnn2C1c1cc(OC)ccc1OC (stereo not drawn)	i
O=C(NC(=S)Nc1ccc(F)cc1F)c1ccco1	2.7%
CCc1ccccc1NC(=O)c1ccccc1Br	i
Cc1ccc(C(=O)COC(=O)c2cccc(Br)c2)cc1[N+](=O)[O-]	i
C=CCOc1ccc(C(=O)N2CCc3ccccc3C2)cc1	i
CNCCOc1ccc(C(C)(C)C)cc1Cl	i
Brc1ccc(OCc2nc3ccccc3s2)cc1	3.9%
O=C(NCCCCc1ccccc1)C(=O)NCC1CCCO1 (stereo not drawn)	i
Cc1ccc(NC(=O)CC2NCCNC2=O)cc1C (stereo not drawn)	i
COc1ccc(CCNC(=O)CSc2ccc(Cl)cc2)cc1OC	i
COC(=O)c1cc(-c2ccccc2)sc1NC(=O)c1c(C)noc1C	i
O=S(=O)(Nc1ccc(Cl)cc1)c1cccc(S(=O)(=O)c2ccc(Cl)c(Cl)c2)c1	i
CCC(C(=O)Nc1ccc(Cl)cc1)c1ccccc1 (stereo not drawn)	i

Compounds above that have a tert-butyl group:
SMILES	Mtb H37Rv
CC(C)(C)Cc1nnc(NC(=O)CC(c2ccccc2)c2ccccc2)s1	3.2%
COc1ccc(CCNC(=O)COc2ccc(C(C)(C)C)cc2)cc1	0.9%
CNCCOc1ccc(C(C)(C)C)cc1Cl	i

Additional structures
SMILES	Mtb H37Rv
CCOC(=O)c1ccc(NC(=O)C(C)N(c2ccc(Oc3ccccc3)cc2)S(C)(=O)=O)cc1 (stereo not drawn)	43.6%
S=C(c1ccc(N2CCCC2)cc1)N1CCCCC1	0.7%
Cn1c(=O)c2c(ncn2CC(=O)NCc2ccccc2Cl)n(C)c1=O	1.9%
O=C(c1ccccc1)C1CCc2occc2C1=O (stereo not drawn)	2.3%
O=C(O)c1cc(NC(=O)c2ccc(Cl)cc2Cl)cc(NC(=O)c2ccc(Cl)cc2Cl)c1	1.4%
O=C(Nc1cnccn1)Nc1ccc(F)cc1F	i
CN1C(=O)c2cccc3c(S(=O)(=O)N4CCCCC4)ccc1c23	i
O=C(Nc1ccc(C(=O)N2CCCCC2)cc1)c1ccc(Br)cc1	i
CCc1cc(Br)ccc1NC(=S)Nc1sc(Cc2ccccc2)cc1C(=O)OC	i
CCc1ccc(OCC(=O)NNC(=O)c2cnccn2)c(Br)c1	1.12µg/mL*
CC(=O)Nc1ccc(-n2c(C)ccc2C)cc1	i
O=C(Cc1cccs1)Nc1ccc2c(c1)OCO2	i
CSc1ccccc1NC(=O)COc1ccc(S(=O)(=O)NC(C)c2ccccc2)cc1 (stereo not drawn)	6.2%
O=C(Nc1cccc(Cl)c1)C1CC(=O)N(c2ccc(F)cc2)C1 (stereo not drawn)	0.4%
COc1ccc(C2(C(=O)Nc3ccc(C)c(C)c3)CCOCC2)cc1	6.4%
O=C(CN1C(=O)COc2ccccc21)NC1CCCCC1	24.9%
COc1ccc(Cl)cc1C(=O)NCC#N	i
COc1cccc(OC)c1C(=O)Oc1ccc2c(-c3ccccc3)cc(=O)oc2c1C	16.2%
CCCCc1ccc(NS(=O)(=O)N(C)C)cc1	i
COc1ccc(CN2CCN(C(=O)c3ccc(-c4ccccc4)cc3)CC2)cc1OC	4.5%
Cc1cc(C)n(C(=O)CNC(=O)c2ccccc2)n1	i
CCOC(=O)c1ccc(NC(=O)CCCc2ccc(OC)c(C)c2)cc1	3.0%
CC(=O)Nc1ccc(-c2nc(-c3ccccc3)nc3ccccc23)cc1	?
CCC(=O)Oc1c(-c2ccc(Cl)cc2)oc2ccccc2c1=O	26.5%
Cc1nc(NC(=O)c2ccc3c(c2)OCO3)sc1C	0.8%
COc1ccc(Cl)cc1NC(=S)NCCC1=CCCCC1	29.6%
O=S(=O)(c1cccc(Cl)c1)N1CCCC1	i
CCOC(=O)CC1C(=O)NCCN1C(=O)c1sc2ccccc2c1Cl (stereo not drawn)	i
Cc1ccc(C(C)C)c(OCCCN2CC(C)OC(C)C2)c1 (stereo not drawn)	i
CCOc1ccccc1C1CC(=O)Nc2cc(C)c(C)cc21 (stereo not drawn)	3.1%
O=C(CCc1ccc(S(=O)(=O)NCc2ccccc2)cc1)Nc1ccccc1Br	4.8%
O=C(Nc1cc(C(F)(F)F)ccc1N1CCOCC1)c1ccccc1F	i
Cc1ccc(S(=O)(=O)NCC2CCN(S(=O)(=O)c3ccc(C)cc3)CC2)cc1	i
FC(F)(F)c1ccc(Oc2ccccc2Cl)nc1	2.1%
O=c1[nH]c(-c2ccc(Br)cc2)nc2c1cnn2-c1ccccc1	i
Cc1c(C)c2ccc(OS(C)(=O)=O)c(C)c2oc1=O	i
CC(=O)CCc1c(C)[nH]c2ccc(Br)cc2c1=S	i
CCOC(=O)C1=C(C)NC(C)=C(C(=O)OCC)C1c1ccco1	i
COc1ccccc1Nc1ncccc1[N+](=O)[O-]	0.7%
CC(Cc1ccccc1)NC(=O)C1CCCNC1=O (stereo not drawn)	3.7%
O=C(NCc1ccco1)C1CC1c1ccccc1 (stereo not drawn)	i
COc1ccc(S(=O)(=O)Nc2cc(C)cc(C)n2)c2ccccc12	i
Cn1c(=O)c2c(nc(NCCOc3ccc(Cl)cc3)n2C)n(C)c1=O	i
Cc1ccc(S(=O)(=O)Nc2ccc(O)c(-c3c(O)ccc4ccccc34)c2)cc1	i
CCCn1nnc(NC(=O)COc2ccc(C3CCCCC3)cc2)n1	0.64µg/mL*
COc1ccc(C(=O)NC(=S)Nc2ccc3oc(-c4ccc(F)cc4Cl)nc3c2)cc1[N+](=O)[O-]	i
CCc1c(C)nc(N)nc1-n1nc(C(F)(F)F)cc1C(F)(F)F	i
COc1ccc(C(C)NC(=S)Nc2cccc3ccccc23)cc1 (stereo not drawn)	i

Among those listed so far, these have a cyano group:
SMILES	Mtb H37Rv
N#Cc1c(C(F)(F)F)cc(-c2ccc(Cl)cc2)nc1SCC(=O)Nc1ncccn1	23.3%
N#CC1=C(N)Oc2n[nH]c(-c3ccccc3)c2C1c1ccc(Cl)s1 (stereo not drawn)	1.9%
COc1ccc(Cl)cc1C(=O)NCC#N	i

The listing continues.
SMILES	Mtb H37Rv
COc1ccccc1CNC(=O)COc1ccccc1C	3.5%
COc1ccc(NC(=O)C2c3ccccc3Oc3ccccc32)cc1OC	i
CCCCNC(=O)C(=O)Nc1ccccc1	2.3%
CCOc1cc(CNCC2CCCO2)ccc1OCc1ccc(Cl)cc1 (stereo not drawn)	i
COc1ccc(NC(=O)C2Cc3ccccc3CN2S(=O)(=O)c2cccs2)cc1 (stereo not drawn)	i
CCOc1cc(C#N)cc(I)c1OCc1ccccc1Cl	2.2%
COC(=O)c1c(NC(=O)c2ccncc2)sc2c1CCCC2	i
O=C(NC1CCCC1)c1ccc(Br)o1	i
Cc1ccc2oc(C(=O)Nc3sc4c(c3C#N)CCCC4)c(C)c2c1	i
COc1ccc(N(CC(=O)Nc2cccc(SC)c2)S(C)(=O)=O)cc1Cl	1.1%
CCOc1ccccc1N1CCN(C(=O)c2c(Cl)cccc2Cl)CC1	i
Cc1ccc(N2CCN(CC(=O)Nc3cc(Cl)ccc3Cl)CC2)c(C)c1	i
CCOC(=O)CSC1=C(C#N)C(c2ccccc2F)CC(=O)N1 (stereo not drawn)	i
COc1ccc(COc2ccc3c(=O)c(-c4ccccc4OC)coc3c2)cc1	3.3%
Cc1occc1C(=O)N1CCC(C)CC1	i
C=CCn1c(COc2ccccc2)nnc1SCC(=O)Nc1ccc(Br)c(Cl)c1	i
COc1cc(C=O)ccc1OCc1ccc(Cl)cc1	22.7%
C=CCOc1ccc(Cl)cc1C(=O)O	i
COc1cc(C(=O)Nc2cc(Cl)ccc2O)ccc1OC(C)=O	i
CC(C)(C)C(=O)OCC#CCSc1nnc(-c2ccc(Br)cc2)o1	6.1%
Cn1cc(C(c2ccc(O)c(O)c2O)c2cn(C)c3ccccc23)c2ccccc21	i
